Screens from PubChem BioAssay.
Choline anaer gr – inhibitors of anaerobic choline-dependent gram-negative bacterial growth | hit rate 0.2% among 55,000 | calls only | Gram-negative bacterium anaerobic choline minimal medium, absorbance growth; hits give low values; many inactives read as strong as hits in the columns shown;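 active means growth z-score on choline under -2 at 7 or 20 h with little or no fall on glycerol, limits in tiers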;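 further: stock transfer was 300 nL into about 50 µL; the organism is E. coli; final concentration not given here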
Choline anaer gr early – recorded beside Choline anaer gr, whose call it bears; z-score; measured here: choline growth z-score, timepoint 1;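 score of optical density at 7 h as mean of two plates; lower means less growth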
* hit, by the source's call; i = inactive; & = joins results of further samples.

Order of values: Choline anaer gr | Choline anaer gr early
(1) Cc1ccc2c(c1)NC(=O)c1cc(S(=O)(=O)N3CC(C)OC(C)C3)ccc1O2 (stereo unspecified)
    i | 0.18
(2) Cn1c(=O)n(CCC(=O)N2CCCC2)c(=O)c2cc(S(=O)(=O)NCc3cccnc3)ccc21
    i | -0.03
(3) CCN(CC)C(=O)CCc1nc(-c2cc3ccc(C)cc3[nH]c2=O)no1
    i | 0.01
(4) CC(=O)N1CCC(C(=O)NCc2ccccc2)(N(CCc2ccccc2Cl)C(=O)c2ccc(C)cc2)CC1
    i | -0.28
(5) Cc1cc(S(=O)(=O)Nc2cc3c(cc2N2CCCCC2)n(C)c(=O)n3C)ccc1F
    i | -0.5
(6) CCOC(=O)CNC(=O)Nc1nc2c(s1)CCCCCC2
    i | 0.82
(7) O=C(Nc1ccc(F)c(Cl)c1)N1CCN(Cc2nc3cccnc3n2-c2cccc(F)c2)CC1
    i | 0.19
(8) CCN(Cc1ccccc1)C(=O)CCc1nc(CN2CCN(S(=O)(=O)c3ccc(Cl)cc3)CC2)no1
    i | 0.14
(9) CC(=O)Nc1ccc(Nc2cc(C(=O)O)c3ccccc3n2)cc1
    i | -0.83
(10) Cc1cc(NCCOCCO)n2nc(C(F)(F)F)c(-c3ccc(F)cc3)c2n1
    i | -0.52
(11) Cc1ccc(-c2nccc(Oc3cccc(C(=O)NC(C)c4ccc(C)cc4)c3)n2)cc1 (stereo unspecified)
    i | 1.1
(12) O=C(c1c[nH]c2ccc(Cl)cc2c1=O)N1CCOCC1
    i | 0.85
(13) COc1ccc2c(c1)sc1nc(-c3ccsc3)c(Nc3ccccc3C)n12
    i | -0.68
(14) CC(=O)Nc1ccc(NC(=O)Cn2cc(-c3nnc(C)o3)c3ccccc32)cc1
    i | 0.2
(15) COC(=O)c1ccccc1NC(=O)CSc1nc(C)cc(C)c1C(=O)Nc1ccccc1
    i | 1.3
(16) CC(C)NC(=O)c1nn(-c2ccccc2)nc1CO
    i | -0.34
(17) CC1(C(=O)NC2CCCCC2)Cc2ccccc2C(=O)N1C1CCCCC1 (stereo unspecified)
    i | -0.77
(18) COc1cc(OC)c(Nc2c3c(nc4ncnn24)CCC3)cc1Cl
    i | 1
(19) Cc1ccc(N(Cc2nc3nc(C)cc(C)n3n2)C(=O)C(C)C)cc1
    i | 0.15
(20) Cc1cc(C)n(-c2nc(C)c(C)c(=O)n2CC(=O)NC(C)(C)C)n1
    i | -1.2
(21) Cc1ccc(S(=O)(=O)CCC(=O)Nc2nc(-c3ccccn3)cs2)cc1
    i | -0.04
(22) Cn1c(=O)c(=O)n(C)c2cc3c(cc21)nc(C(F)(F)F)n3Cc1ccccc1
    i | -1.6
(23) CCOc1ccccc1Cn1c(=O)c2sccc2n2c(=S)[nH]nc12
    i | -0.35
(24) CCOC(=O)N1CCC(NC(=O)CCC2CCCN(c3cc(NC4CC4)ncn3)C2)CC1 (stereo unspecified)
    i | 0.46
(25) Cc1ccc2cc3cc(C(=O)N4CCCC4)sc3nc2c1
    i | -1
(26) Cc1ccc2c(c1)N(CC(=O)NCCN(C)C)C(=O)CO2
    i | 0.49
(27) CC(C)n1c(N2CCCN(C(=O)C3CCCC3)CC2)cc(=O)n(C(C)C)c1=O
    i | -0.92
(28) COc1cccc(CSc2nc3ccncc3n2Cc2ccc(C(=O)NC3CCCCC3)cc2)c1
    i | 1.4
(29) Cc1ccc(C)c(N2CCN(S(=O)(=O)c3ccc(-c4cnc(C5CC5)o4)s3)CC2)c1
    i | 1.4
(30) CC(C)(C)c1ccc(OCc2cc(=O)n3ccsc3n2)cc1
    i | 0.07
(31) NS(=O)(=O)c1cc2c(cc1Cl)NC(CSCc1ccccc1)=NS2(=O)=O
    i | 0.46
(32) COc1cc(OC)c(NC(=O)c2cc3c(C)nn(-c4ccccc4)c3s2)cc1Cl
    i | -0.32
(33) Cc1ccc(CNC(=O)C2CCN(C(=O)N3CCOc4ccc(Cl)cc43)CC2)cc1
    i | -0.07
(34) O=C(Nc1ccc(Br)cc1)N1CCN(Cc2nc3cccnc3n2-c2ccccc2)CC1
    i | -0.52
(35) O=c1[nH]c2cc(-c3noc(C4CCC4)n3)ccc2n1C1CCCC1
    i | 0.09
(36) COc1cc(NC(=O)NCCn2c(C(F)(F)F)nc3cccnc32)cc(OC)c1
    i | 0.16
(37) O=C(c1ccco1)N1CCC(Nc2ncnc3c2CCC3)CC1
    i | 0.04
(38) O=C(Nc1ccccc1)c1sc2ncccc2c1-n1cccc1
    i | -1.6
(39) CCc1nnc2c(NCCCOC)nc3ccccc3n12
    i | 0.26
(40) Cc1ccc(/C=C/c2onc(C)c2S(=O)(=O)N2CCCC(C(=O)Nc3cccc(C)n3)C2)cc1 (stereo unspecified)
    i | 0.71
(41) CC(C)CNc1ccc2nncn2n1
    i | -0.78
(42) Cn1c(=O)n(CCN2CCOCC2)c(=O)c2cnc(-c3cccnc3)nc21
    i | -0.5
(43) COc1ccc(C)cc1N1C(=O)c2ccncc2C1=O
    i | -0.76
(44) COc1ccc(NC(=O)c2cccc(NC3=NC4CS(=O)(=O)CC4S3)c2)cc1Cl (stereo unspecified)
    i | -0.91
(45) CCOc1cccc(-c2noc(CCn3nc(-c4ccc(Cl)cc4)ccc3=O)n2)c1
    i | 1.8
(46) Cc1cc(-c2ccc(C)c(S(=O)(=O)Nc3ccc(C)c(F)c3)c2)n[nH]1
    i | -0.24
(47) Cc1cccc(C)c1Nc1c(-c2ccc(N3CCOCC3)cc2)nc2ncccn12
    i | 1.2
(48) O=C(Nc1ccc2c(c1)OCO2)C1CCN(c2ccc(-c3ccc(F)cc3)nn2)CC1
    i | 1.9
(49) CC1(C(=O)NC2CCCCC2)Cn2c(ccc2-c2ccccc2)C(=O)N1CCCN1CCCC1=O (stereo unspecified)
    i | 0.51
(50) O=C(c1cnc(N2CCCC2)nc1)N1CCCC1
    i | -1.1
(51) O=C(CCC(=O)N1CCN(C2CCCCC2)CC1)N1CCCN(c2nc3cccnc3s2)CC1
    i | -0.82
(52) COc1ccc(-c2csc(Cc3nc(-c4ccc(C)cc4)no3)n2)cc1
    i | 1.7
(53) COc1cccc(CNC(=O)c2ccc(CSc3nc4ccncc4n3Cc3ccc(C)cc3)cc2)c1
    i | 0.98
(54) Cc1cc(N2CCOCC2)n2nc(CN3CCCC(C)C3)nc2n1 (stereo unspecified)
    i | 0.66
(55) C=CCn1c(NCc2cccc(Br)c2)nc2ccccc21
    i | 0.48
(56) COc1ccc(NS(=O)(=O)c2ccc(N)cc2)nn1
    i | -0.65&0.09
(57) Cc1ccc(NC(=O)C2CCN(S(=O)(=O)c3ccc4c(c3)C(C)(C)C(=O)N4C)CC2)c(C)c1
    i | 0.43
(58) C#CCSc1nc2c(c(=O)[nH]1)C(c1cc(F)cc(F)c1)CC(=O)N2 (stereo unspecified)
    i | 1.1
(59) O=C(c1cn2c(n1)CCCC2)N1CCC(N2CCCCC2)CC1
    i | 1.4
(60) Cn1c(SCC(=O)N2CCOCC2)nnc1-c1cc2ccccc2o1
    i | -0.45

An excerpt of the results above, as a working copy:
Order of values: Choline anaer gr | Choline anaer gr early
(59) O=C(c1cn2c(n1)CCCC2)N1CCC(N2CCCCC2)CC1
    i | 1.4
(60) Cn1c(SCC(=O)N2CCOCC2)nnc1-c1cc2ccccc2o1
    i | -0.45

(cont.)
Order of values: Choline anaer gr | Choline anaer gr early
(61) COc1ccc(C2c3cccn3-c3sc4c(c3CN2C(=O)Nc2cc(F)ccc2F)CCN(C)C4)cc1 (stereo unspecified)
    i | 0.05
(62) COC(=O)c1ncn2c1C(=O)N(Cc1cccc(C)c1)C(C)(C(=O)NC1CCCC1)C2 (stereo unspecified)
    i | 1.1
(63) O=C(CSc1ncnc2c1[nH]c1ccccc12)N1CCc2ccccc2C1
    i | 0.18
(64) CC(=O)Nc1ccc(S(=O)(=O)[C@H]2CS(=O)(=O)C[C@@H]2NCCc2c[nH]c3ccccc23)cc1
    i | -0.58
(65) CC1Oc2ccccc2N(CC(=O)N2CCN(c3ccc(=O)n(-c4ccc(F)cc4)n3)CC2)C1=O (stereo unspecified)
    i | 0.13
(66) Cc1cccc(C2Sc3ccccc3NC3=C2C(=O)c2ccccc23)c1 (stereo unspecified)
    i | -1.3
(67) CCCSc1ccc(Cl)nn1
    i | -0.75
(68) CCOC(=O)c1nc(NC(C)C)c2c(-c3ccc(F)cc3)noc2n1
    i | -0.54
(69) O=C(Nc1ccc(Cl)cc1)Nc1cccc(-c2nnc(-c3ccccc3)o2)c1
    i | -1.1
(70) CCc1ccc(CN2C(=O)CCC2(C)C(=O)NC2CCCC2)cc1 (stereo unspecified)
    i | -0.32
(71) COc1ccc(NC(=O)c2ccc(-c3nc4ccccc4n(CC(C)C)c3=O)cc2)cc1OC
    i | -0.63
(72) CCCNS(=O)(=O)c1ccc2c(c1)N(Cc1noc(C3CCC3)n1)C(=O)CO2
    i | 1.7
(73) CC(C)C(NC(=O)c1ccc2c(c1)OCCO2)c1ccc2c(c1)OCCCO2 (stereo unspecified)
    i | -0.55
(74) Cc1cc(C(=O)C2CC(=O)Nc3c2c(C)nn3-c2ccc(Br)cc2)c(C)s1 (stereo unspecified)
    i | -1.2
(75) Cn1c(SCc2cc(=O)n3[nH]c(-c4ccccc4)nc3n2)nc2sc3c(c2c1=O)CCCC3
    i | -0.36
(76) CC(C)(C)C(=O)Nc1cc(-c2ccccc2F)nn1-c1ccccc1
    i | 1.6
(77) Cc1ccc(NC(=O)CCc2nc(CSc3nc(-c4ccccc4)cs3)no2)cc1
    i | 1.2
(78) O=c1n(Cc2cccc(C(F)(F)F)c2)nc2c(S(=O)(=O)N3CCc4ccccc4C3)cccn12
    i | 1.3
(79) COc1ccc(-c2nn3c(-c4cc(CC(C)C)[nH]n4)nnc3s2)cc1
    i | -0.71
(80) CC(C)N(C1CCCCC1)S(=O)(=O)c1ccc2c(c1)N(Cc1noc(C3CCC3)n1)C(=O)CO2
    i | 2.9
(81) COc1ccc(C(CNC(=O)COc2ccccc2)c2c[nH]c3ccccc23)cc1 (stereo unspecified)
    i | -0.05
(82) O=C1COc2ccc(-c3csc(Nc4cc(-c5ccccc5)nn4-c4ccccc4)n3)cc2N1
    i | 1.4
(83) CCc1ccc(-c2noc(CSc3ccc(-c4ccc5c(c4)OCO5)nn3)n2)cc1
    i | 0.82
(84) CN1C(=O)C(C)(C)c2cc(S(=O)(=O)N3CCN(c4ccc(Cl)cc4)CC3)ccc21
    i | -0.71
(85) CNC(=O)CN1C(=O)CN(C(=O)NCc2ccccc2)c2ccccc21
    i | 0.92
(86) CCN(CC)c1nc2ccccc2nc1C(=O)Nc1ccc2c(c1)c1ccccc1n2CC
    i | 1.4
(87) O=C(Cn1c(=O)n2nc(-c3ccccc3)nc2c2ccccc21)c1ccc(Br)cc1
    i | 0.22
(88) CCN(CC)C(=O)c1ccc2c(c1)N(CC(=O)NCc1ccc3c(c1)OCO3)C(=O)CO2
    i | -0.58
(89) CCCC(=O)NCc1csc(-c2ccc(OC)cc2)n1
    i | 0.76
(90) O=C(NC1CCCC1)c1cncc(-c2ccc(F)cc2)c1
    i | -0.55
(91) CCn1nccc1C(=O)N1CCN(c2ncnc3c2CCC3)CC1
    i | 0.6
(92) CC(CN(C)C)C(C)(O)Cc1ccc(Cl)cc1 (stereo unspecified)
    i | 0.23
(93) O=C(Nc1cccc2nsnc12)c1ccccn1
    i | 1.2
(94) CCOCCCNC(=O)c1cc(-c2cccnc2)nc2ccccc12
    i | -0.1
(95) O=C(NC1CCCC1)C1CCCN(C(=O)c2ccc(NS(=O)(=O)c3ccc(F)cc3)cc2)C1 (stereo unspecified)
    i | 0.54
(96) CN(C)S(=O)(=O)c1ccc(-c2nnc(C(=O)NCc3ccc(Br)cc3)o2)cc1
    i | -1.6
(97) COc1ccccc1CNC(=O)C1CCN(c2ncccc2-c2nc(-c3cccc(C)c3)no2)CC1
    i | -1.3
(98) Cc1nc(-c2cc(NC(=O)c3cccc(Br)c3)c(C)s2)no1
    i | 1.2
(99) O=C(NCCCN1CCOCC1)c1cc2n(n1)CCCN(Cc1ccc(Cl)cc1)C2=O
    i | 0.89
(100) Cc1ccc(N2CCC(C(=O)NC(C)C)C2=O)cc1 (stereo unspecified)
    i | 1.1

Entries of single compounds as entered above. Order of values: Choline anaer gr	Choline anaer gr early
Profile of `O=C(NCCCN1CCOCC1)c1cc2n(n1)CCCN(Cc1ccc(Cl)cc1)C2=O` = i	0.89
Profile of `CN(C)S(=O)(=O)c1ccc(-c2nnc(C(=O)NCc3ccc(Br)cc3)o2)cc1` = i	-1.6
Profile of `CCN(CC)C(=O)c1ccc2c(c1)N(CC(=O)NCc1ccc3c(c1)OCO3)C(=O)CO2` = i	-0.58
Profile of `CC(CN(C)C)C(C)(O)Cc1ccc(Cl)cc1` (stereo unspecified) = i	0.23
Profile of `O=C(NC1CCCC1)c1cncc(-c2ccc(F)cc2)c1` = i	-0.55

Further entries:
Order of values: Choline anaer gr | Choline anaer gr early
(101) O=C(NCc1cccnc1)c1ccc(CN2C(=O)CCn3nccc32)cc1
    i | 0.28
(102) CCOCCCNC(=O)CCc1nc(N2CC(C)CC(C)C2)c2c(C)noc2n1 (stereo unspecified)
    i | -0.25
(103) Fc1ccc(CNc2ccc(Cl)nn2)cc1
    i | -1.9
(104) Cn1c(=O)c(-c2noc(CCC(=O)Nc3cccc(Cl)c3)n2)nn(-c2ccc(F)cc2)c1=O
    i | 0.87
(105) CCc1ccc2nc(Nc3ncc4c(n3)CCCC4=O)nc(C)c2c1
    i | 0.47
(106) COC(=O)c1ccc2c(=O)n(-c3cc(C)cc(C)c3)c(N3CCN(C(C)C)CC3)nc2c1
    i | -2.1
(107) CS(=O)(=O)Nc1ccc(-c2noc(Cc3ccc(Br)cc3)n2)cc1
    i | -1.7
(108) CCCCNC(=O)CSc1nnc(-c2ccncc2)o1
    i | -2.2
(109) CCCCNC(=O)c1c(-c2ccccc2)nc2n1CCS2(=O)=O
    i | -1.1
(110) OC[C@H]1NC[C@@H](O)[C@@H](O)[C@@H]1O
    i | 0.52&0.06
(111) O=C(Cn1c2ncccc2c(=O)n1-c1ccccc1)Nc1ccccc1Cl
    i | -0.1

An excerpt (hit frequency here may not be typical).
